Assay outcomes as filed in PubChem.
Six1-Eya2 inh: blocks human Six1 binding to Eya2 | activity change, % (test concentration not listed) | AID 651725 | AlphaScreen GST-Six1/His-Eya2 binding, biochemical; hits give low values; control for the full effect not named in the record | hit rate 0.56% among 360,000 | Q15475+O00167; in the data active = activity change below about -65%; inconclusive = about -30% to -65%; inactive = above about -30%; note: % is set by controls: 0 for no effect and ±100 for the full control effect; compound concentration not given in the record
Target sequence (O00167 whole entry, looked up): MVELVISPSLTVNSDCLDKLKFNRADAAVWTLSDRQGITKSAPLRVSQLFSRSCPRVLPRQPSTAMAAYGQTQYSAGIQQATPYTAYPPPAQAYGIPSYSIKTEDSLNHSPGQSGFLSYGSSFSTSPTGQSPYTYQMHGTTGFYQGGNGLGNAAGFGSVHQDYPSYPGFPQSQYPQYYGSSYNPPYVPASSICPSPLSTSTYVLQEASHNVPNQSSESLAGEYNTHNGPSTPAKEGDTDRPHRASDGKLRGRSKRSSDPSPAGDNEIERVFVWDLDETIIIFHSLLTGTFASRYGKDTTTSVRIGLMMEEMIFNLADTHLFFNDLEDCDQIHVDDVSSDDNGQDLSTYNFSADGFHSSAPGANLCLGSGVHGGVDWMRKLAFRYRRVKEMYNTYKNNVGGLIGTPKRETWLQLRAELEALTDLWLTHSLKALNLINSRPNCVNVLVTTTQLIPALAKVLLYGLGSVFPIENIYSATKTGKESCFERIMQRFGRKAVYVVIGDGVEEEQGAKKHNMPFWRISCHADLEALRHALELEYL
Target sequence (Q15475 whole entry, looked up): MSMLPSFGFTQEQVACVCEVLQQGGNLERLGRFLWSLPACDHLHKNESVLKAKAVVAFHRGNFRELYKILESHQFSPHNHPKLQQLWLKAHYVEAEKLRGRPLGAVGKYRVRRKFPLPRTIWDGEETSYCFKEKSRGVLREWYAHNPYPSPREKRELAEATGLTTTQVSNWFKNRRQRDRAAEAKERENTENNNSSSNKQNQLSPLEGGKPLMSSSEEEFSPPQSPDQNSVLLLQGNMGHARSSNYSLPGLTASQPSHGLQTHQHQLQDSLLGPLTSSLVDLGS
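AlphaScreen luminescence read after one hour at 37 °C in darkness. Pin-transferred compounds met GST-Six1 and His-Eya2 protein (5X stock 250 nM/500 nM) plus glutathione donor and Ni-chelate acceptor beads (5X, 50 ug/mL).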
TRPML1 ag: agonists of human TRPML1 channel | hit rate 0.12% among 410,000 | TRPML1-expressing cells, Ca2+ dye fluorescence, FDSS; host cell line not named in the record; reference of the full effect not given here | activation, % (test concentration not listed) | Q9GZU1 | AID 624414; in the data active = activation above about 50%; inconclusive = about 30% to 50%; inactive = below about 30%; note: 0% is about no effect; the text of the record puts the active cut at 80%
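Kinetic FDSS Ca2+ read in Tet-induced TRPML1-DL cells (ABD Ca8 dye plus quencher, 45-90 min RT loading): baseline, then compound, then 110 s agonist window; EC80 agonist 54-4 at 4uM final added afterwards for a 110 s antagonist window.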
D2 agonist: activates the human D2 dopamine receptor. DiscoveRx PathHunter D2 beta-arrestin, luminescence, 90 min; 100% = 57 uM dopamine signal. activation, % (concentration not given with the values). hit rate 0.084% among 360,000. AID 624465; in the data active = activation above about 40%; inconclusive = about 15% to 40%; inactive = below about 15%; note: compound concentration not given in the record; the text of the record calls up to 30% inactive
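DiscoveRx PathHunter D2 beta-arrestin cells (2,100/well) attached overnight, then compound-stimulated 90 min at 37 C in HBSS/10 mM HEPES/0.1% Tween-20 buffer; beta-galactosidase complementation read by luminescence after 1 h at ambient temperature. Dopamine 57 uM final (EC100) as control.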
TRPML1 blocker: human mucolipin-1 channel inhibition. TRPML1-inducible cells, Ca2+ dye fluorescence, FDSS; hits give low values; inhibition of EC80 agonist-evoked calcium signal. hit rate 0.02% among 390,000. activity change, negative = inhibition, % (no concentration beside the values). Q9GZU1; in the data active means activity change below about -50%; inconclusive means about -30% to -50%; inactive means above about -30%;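 note: stimulus is agonist 54-4 at its EC80 concentration; % is set by controls: 0 for no effect and ±100 for the full control effect; compound concentration not given in the record; the text of the record puts the active cut at -80%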
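Tet-induced TRPML1-DL cells loaded with Ca8 no-wash calcium dye were read kinetically on FDSS. Compound addition was followed by EC80 agonist 54-4 (4 uM final); inhibition was read over 110 s.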
CtBP-E1A blk: inhibitors of CtBP/E1A interaction. activity change, % (no concentration beside the values). AID 651724. AlphaScreen GST-E1A/His-CtBP binding, 1536-well; hits give low values; control for the full effect not named in the record. hit rate 0.49% among 340,000; in the data active means activity change below about -65%; inconclusive means about -30% to -65%; inactive means above about -30%; note: % is set by controls: 0 for no effect and ±100 for the full control effect; compound concentration not given in the record
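Homogeneous bead-based format: GST-tagged E1A captured on glutathione donor beads, His-tagged CtBP on nickel acceptor beads; compounds precede bead addition by 2 h at 37 °C.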
PINK1 expr mod: PINK1 expression modulation. AID 624263. Potency, µM (doses to about 76.6 µM), for the others: at the top dose activation (PINK1 increase), most hits filed as activators. PINK1 immunofluorescence, high-content cytometry, 24 h. hit rate 0.2% among 410,000; active = well fitted activation curve with a large enough effect; inconclusive = small, poorly fitted or top-dose-only effect; inactive = flat fitted curve, though single readings scatter; cell line not stated here;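 note: potency is the fitted concentration of half-maximal effect; % of control where 0% means no effect; nearly all actives have a fitted effect of over 65% in size; a mitochondrial uncoupler was the plate control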
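Readout is PINK1 immunofluorescence, quantified alongside mitochondrial, cell and nuclear markers by laser-scanning microplate cytometry. Cells from a stable line were exposed to compound titrations (5 concentrations) for 24 hours, with CCCP controls.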
Active calls of the source: *; ? = inconclusive; nt = no result given; & = joins results of further samples; [ ] = another dose, or the depositor's remark.

SMILES,Six1-Eya2 inh,TRPML1 ag,D2 agonist,TRPML1 blocker,CtBP-E1A blk,PINK1 expr mod
O=C(COC(=O)c1cc(Cl)ccc1O)NCCNC(=O)COC(=O)c1cc(Cl)ccc1O,1,0.1,-2.6,-5,1,1.9%
COc1ccc(CC(=O)O/N=C(\N)c2cccc([N+](=O)[O-])c2)cc1,-13,-0.1,8.6,10,-13,-0.1%
COc1ccc2cc(C(C)c3nc4ccccc4c(=O)n3N)ccc2c1 (centres undefined),-12,-0.2,0.8,0,-3,3.0%
c1ccc(-c2nnc(CN3CCC4(CC3)OCCO4)o2)cc1,-3,-0.7,-3.1,4,-1,-2.3%
CC(c1ccco1)N(C(=O)C12CC3CC(CC(C3)C1)C2)c1ccccn1 (centres undefined),-2,-1.3,-4.1,16,-2,0.7%
CCOc1ccc(/C=N/OCC(=O)Nc2ccc(OCc3ccccc3)cc2)cc1OC,-8,1.5,-2.4,1,-7,-0.8%
CCn1c(CN2CCOCC2)nnc1SCC(=O)Nc1ccc(C)cc1,2,0.8,-4.0,17,-5,-2.1%
CS(=O)(=O)NNC(=O)C1Cc2c(ccc3ccccc23)O1 (centres undefined),2,-0.2,4.1,-5,nt,1.9%
CCC(C)(C)NC(=O)C(c1ccc(OC)cc1)N(CC1CCCO1)C(=O)CCC(=O)Nc1cc(C)on1 (centres undefined),4,0.3,0.8,-18,5,-1.8%
CC(=O)Nc1ccc(S(=O)(=O)N(C)CC(=O)Nc2ccc(F)c(F)c2F)cc1,-1,0.3,-5.1,2,-4,1.3%
COc1ccc2c(-c3ccc(OCCN4CCCCC4)cc3)c(-c3ccccc3OC)sc2c1,?,-0.4,13,-7,-22,-0.6%
CC(C)n1c(N2CCN(CC(=O)Nc3ccc4c(c3)OCCO4)CC2)nc2ccccc21,-5,0.7,-1.9,1,-3,0.0%
COc1ccccc1NC(=O)COC(=O)CCS(=O)(=O)c1ccc(C)cc1,5,1.5,-5.9,0,5,0.7%
COc1ccc(OCc2n[nH]c(=S)n2N)cc1,4,-0.1,12,-6,-7,-0.5%
COc1ccc(C(=O)COC(=O)c2ccc(Cl)nc2)cc1OC,-1,0.0,-0.1,13,-2,1.4%

Carrying on:
SMILES,Six1-Eya2 inh,TRPML1 ag,D2 agonist,TRPML1 blocker,CtBP-E1A blk,PINK1 expr mod
CC1(c2ccccc2)CC(c2ccccc2)=Nc2ccccc2N1 (centres undefined),10,1.1,-1.9,21,5,12%
Cc1ccc(C2=C/C(=C\c3cccnc3)C(=O)O2)cc1,2,1.6,-5.9,-7,nt,0.5%
O=C(Cn1c(SCC(=O)NC2CCCC2)nnc1-c1ccncc1)Nc1ccc2c(c1)OCO2,-14,0.0,-2.7,-13,4,-1.3%
Cc1ccc(O)c(C=Nc2ccc3[nH]ncc3c2)c1,-4,0.1,1.1,0,0,1.7%
COc1cc(OC)c(NC(=O)C(C)n2nc(-c3ccc(C)c(C)c3)ccc2=O)cc1Cl (centres undefined),nt,0.2,nt,-10,nt,2.2%
O=C(NNC(=S)Nc1ccccc1)c1cccc(Br)c1,0,3.9,-6.3,6,17,2.6%[38.3 µM]
CCOC(=O)c1ccc(COC(=O)c2nonc2N)cc1,1,1.1,-2.3,-10,1,-0.8%
COc1cccc(CNC(=O)c2ccc(Cl)c(S(=O)(=O)N3CCOCC3)c2)c1,2,0.0,-3.9,-10,nt,-1.1%
COc1ccc(CNc2ccc(N3CCOCC3)cc2)cc1,-1,nt,?,nt,nt,1.1%
COc1ccc(C(=O)NCc2ccc3c(c2)CCN3C(=O)c2ccc(C)cc2)cc1,nt,2.1,nt,-11,nt,2.0%
Fc1ccc(N2CCN(c3nc4ccccc4c4nc(-c5cccnc5)nn34)CC2)cc1,nt,-0.4,nt,14,nt,0.3%
CNCc1ccccc1Sc1ccc(O)c(O)c1,-2,0.1,?,7,-2,2.1%
COc1cc(C(=S)N2CCOCC2)cc(OC)c1OC(=O)c1ccc(F)cc1,6,1.8,-3.6,14,20,2.5%
CCOc1ccc(C(=O)NC(C(=O)NCC2CCCO2)C(C)C)cc1 (centres undefined),3,-0.3,-2.7,-7,-2,1.3%
NC(=O)CC[C@H](NC(=O)c1ccc(F)cc1)C(=O)OCC(=O)NCc1ccc(F)cc1,1,-0.4,1.4,-7,0,0.4%

New compounds follow:
SMILES,Six1-Eya2 inh,TRPML1 ag,D2 agonist,TRPML1 blocker,CtBP-E1A blk,PINK1 expr mod
COc1nc(-c2ccccc2)ccc1-c1noc(-c2ccccc2Br)n1,nt,-0.2,nt,-6,nt,3.1%
O=C(CSc1nc(=O)n(CCN2CCOCC2)c2c1CCCC2)Nc1ccc(F)cc1F,6,-0.2,-3.0,-16,-20,0.1%
CC(C)NC(=O)C1(C)CCCN1C(=O)c1ccccc1Br (centres undefined),6,-0.3,-6.3,-1,3,3.6%
NC(=O)c1ncc(C(F)(F)F)cc1Oc1cccnc1,-2,-0.4,-1.1,4,-1,0.9%
CCCCOc1ncnc2c1[nH]c1ccc(OCC)cc12,0,0.3,-0.6,-11,0,-0.9%[38.3 µM]
O=C(Nc1ccc(S(=O)(=O)N2CCCCC2)cc1)c1ccco1,0,0.0,4.2,1,-1,3.6%
CCOc1ccc(-c2onc(C(F)(F)F)c2-c2cscn2)c(O)c1,1,1.6,-0.2,13,3,7.1%[38.3 µM]
CC(=O)N1CCN(CC(=O)Nc2ccccc2Sc2ccc(Cl)cc2)CC1,-9,0.1,-1.4,-21,-8,1.3%
O=C(CCNS(=O)(=O)c1ccc(Cl)cc1)NCc1cccnc1,4,0.4,0.7,-6,2,4.4%[38.3 µM]
Cc1noc(C)c1S(=O)(=O)Nc1ccc2c(c1)C(=O)N([C@H](C)CO)C[C@H](C)[C@@H](CN(C)Cc1ccc(C(=O)O)cc1)O2,6,-0.5,7.3,17,4,-0.5%
COc1ccc(NC(=O)CNC(=O)c2sc3ccccc3c2Cl)c(OC)c1,1,-0.8,11,-9,9,3.3%
CC(=O)Nc1ccc(NC(=O)COC(=O)c2cnccn2)cc1,0,0.4,2.4,-4,2,-1.4%
CCOc1cc(CNCc2ccc(C(=O)O)cc2)ccc1OC,4,0.0,-4.1,0,nt,1.2%
CC(C)(C)c1ccc(CC(=O)N2CCC2(C)C(=O)NS(=O)(=O)c2ccccc2Cl)cc1 (centres undefined),6,1.5,-4.8,nt,1,0.5%
Cc1nn(-c2ccccc2)c(OC(=O)c2ccccc2F)c1S(=O)(=O)c1ccccc1,nt,0.0,nt,0,nt,4.5%

Carrying on:
SMILES,Six1-Eya2 inh,TRPML1 ag,D2 agonist,TRPML1 blocker,CtBP-E1A blk,PINK1 expr mod
COc1ccc(N2CC(C(=O)N3CCC4(CC3)CC(=O)c3ccccc3O4)CC2=O)cc1 (centres undefined),-2,-1.0,1.1,3,-1,2.5%
Cc1cc(C)nc(NC(=O)/C=C/c2ccccc2Cl)c1,6,0.6,-3.9,2,4,24%
Fc1ccccc1N1CCN(c2ncnc3c2nc2n3CCCC2)CC1,nt,0.7,nt,1,nt,8.1%
O=c1[nH][nH]c(C(F)(F)F)c1C=Nc1cccc(Cl)c1,-3,-0.5,-5.0,3,1,0.4%
O=C(CC1CCCCC1)NCc1ccco1,3,0.1,0.7,-1,-2,1.6%
COc1ccccc1-c1c(C)nn2c(N3CCOCC3)cc(C)nc12,?,nt,-5.6,nt,-1,0.8%
O=C(CSc1ccc2ccccc2n1)NC1CC1,5,1.0,-6.4,4,10,6.5%
Cc1noc(C)c1C(=O)N1CCCC(C(=O)c2ccc(Cl)cc2)C1 (centres undefined),0,-0.3,-4.0,11,2,2.3%
CC(=NCCN1CCN(C(=S)Nc2ccccc2)CC1)C1=C(O)CC(C)(C)CC1=O,1,-0.5,-0.6,-5,1,-1.8%
O=c1[nH]c(CSc2nnc(-c3ccncc3)n2Cc2ccco2)nc2ccccc12,3,1.1,-2.7,-7,-2,2.1%
CC(CN1CC(=O)NC(=O)C1)N1CC(=O)NC(=O)C1 (centres undefined),1,-0.4&-0.2,0.6,13,1,0.8%
Cc1ccc(C)c(S(=O)(=O)Nc2cc3c4c(c2)CCN4C(=O)CC3)c1,1,-0.5,-2.5,-22,-15,5.4%
COc1ccc2oc(C(=O)OCc3c(C)noc3C)c(C)c2c1,-1,0.1,-4.5,-4,-7,0.1%
CCO[C@@H]1OC(C(=O)NCc2nc3ccccc3[nH]2)=C[C@H](c2csc3ccccc23)[C@H]1CCCO,-4,-0.2,-0.1,-2,-1,1.9%
CCC(=O)Nc1cccc(-c2cn3c(C)csc3n2)c1,nt,-0.3,nt,-6,nt,1.4%

Following part.
SMILES,Six1-Eya2 inh,TRPML1 ag,D2 agonist,TRPML1 blocker,CtBP-E1A blk,PINK1 expr mod
CNC(=O)NNC(=O)c1csc(-c2ccc(C(F)(F)F)cc2Cl)n1,9,0.8,-2.7,-9,4,-0.7%
COc1ccc(Nc2nc(N)c([N+](=O)[O-])c(NCCO)n2)cc1,-29,0.2,1.5,8,-26,-1.1%
O=C(Nc1cccc(-c2cn3c(n2)SCC3)c1)c1ccc2ccccc2n1,-6,1.8,-0.3,9,0,1.3%
Nc1nnc(SCc2ccccc2F)n1-c1ccccc1,1,0.1,-1.4,2,1,0.5%
COC(=O)c1ccc2nc(-c3ccco3)c(Cc3ccc(C)cc3)n2c1,-9,-0.6,-3.1,nt,1,1.4%
OCCCNc1ncnc2oc(-c3ccccc3)c(-c3ccccc3)c12,-7,-0.6,-5.4,-2,2,-0.3%
CCOC(=O)C1CCCN(C(=O)c2cccc(S(=O)(=O)N3CCCC3)c2)C1 (centres undefined),7,-0.2,-4.0,3,nt,-0.8%
CC(C)N1CCN(CC#Cc2ccccc2)CC1CCO (centres undefined),-5,0.8,0.2,11,nt,1.0%
Cc1ccc(C)c(OCCn2cc(/C=C(\C#N)C(=O)NCc3cccs3)c3ccccc32)c1,6,-0.5,-0.4,-4,-2,nt
COc1ccc2[nH]c(=O)c(CN(C(=O)c3cccc(Cl)c3)c3cccc(C)c3)cc2c1,nt,-1.0,nt,14,nt,0.8%
CN(CC1CCCO1)S(=O)(=O)c1ccc(C(=O)Nc2ccc([N+](=O)[O-])cc2)cc1 (centres undefined),-18,0.3,-0.9,-18,-3,1.3%
CCCCN1CCNC1=S,2,-0.1,0.5,-9,2,1.6%
COc1ccc(C(C)(O)c2nc(-c3ccc(S(C)(=O)=O)cc3)cs2)cc1 (centres undefined),-2,-0.4,1.8,nt,5,-0.5%

Molecules from the list above containing a nitro group on carbon, in the order listed:
SMILES,Six1-Eya2 inh,TRPML1 ag,D2 agonist,TRPML1 blocker,CtBP-E1A blk,PINK1 expr mod
COc1ccc(CC(=O)O/N=C(\N)c2cccc([N+](=O)[O-])c2)cc1,-13,-0.1,8.6,10,-13,-0.1%
COc1ccc(Nc2nc(N)c([N+](=O)[O-])c(NCCO)n2)cc1,-29,0.2,1.5,8,-26,-1.1%
CN(CC1CCCO1)S(=O)(=O)c1ccc(C(=O)Nc2ccc([N+](=O)[O-])cc2)cc1 (centres undefined),-18,0.3,-0.9,-18,-3,1.3%
